Assay outcomes: PubChem BioAssay, several laboratories
GALR2 ag = GALR2 receptor agonists, primary screen, cell-based; Galanin receptor type 2 (Homo sapiens), O43603; GALR2-expressing cells, agonist activation read-out; activation, %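 (tested at 5 µM)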; 140,000 tested, 0.48% active; AID 803, 2007;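 active = above mean plus 3 SD of all compounds, about 5% in these data, not always enough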;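 note: 0% = vehicle buffer wells and 100% = reference agonist at full effect; tested in CHO reporter cells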
Target sequence (O43603 whole entry, looked up): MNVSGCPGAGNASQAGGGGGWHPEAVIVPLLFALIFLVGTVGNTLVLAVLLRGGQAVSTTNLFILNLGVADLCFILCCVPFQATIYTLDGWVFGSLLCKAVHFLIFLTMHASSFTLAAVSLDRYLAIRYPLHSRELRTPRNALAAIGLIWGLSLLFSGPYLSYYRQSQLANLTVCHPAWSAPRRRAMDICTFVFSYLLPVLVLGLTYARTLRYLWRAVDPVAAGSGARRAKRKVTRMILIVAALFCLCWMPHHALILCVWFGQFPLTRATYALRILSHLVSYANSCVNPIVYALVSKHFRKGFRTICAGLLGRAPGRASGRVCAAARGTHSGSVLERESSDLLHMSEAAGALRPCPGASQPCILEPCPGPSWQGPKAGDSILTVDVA
RGS16-Gao HTS = modulators of RGS16 binding to Galphao, primary screen, biochemical, human proteins, multiplexed bead flow cytometry. bead-based flow cytometry RGS16-Galphao binding, fluorescence; actives lie on both sides. AID 1441, 2008. Regulator of G-protein signaling 16 (Homo sapiens) + Guanine nucleotide-binding protein …. binding response (% of control), % at 10 µM. 220,000 tested, 0.38% active;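 active = below 25% or above 175%, edge rows of some plates excepted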;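 note: Galphao activated by GDP with aluminum fluoride before binding; 100% = wells without compound and 0% = beads without RGS; some results beyond the cut were filed as inactive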
Target sequence (O15492 whole entry, looked up): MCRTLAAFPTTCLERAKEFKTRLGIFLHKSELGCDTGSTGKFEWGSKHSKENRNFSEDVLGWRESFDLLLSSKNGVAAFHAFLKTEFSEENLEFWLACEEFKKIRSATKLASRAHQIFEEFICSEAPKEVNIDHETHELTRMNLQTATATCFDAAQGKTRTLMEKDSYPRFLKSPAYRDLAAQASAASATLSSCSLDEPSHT
Target sequence (P09471 whole entry, looked up): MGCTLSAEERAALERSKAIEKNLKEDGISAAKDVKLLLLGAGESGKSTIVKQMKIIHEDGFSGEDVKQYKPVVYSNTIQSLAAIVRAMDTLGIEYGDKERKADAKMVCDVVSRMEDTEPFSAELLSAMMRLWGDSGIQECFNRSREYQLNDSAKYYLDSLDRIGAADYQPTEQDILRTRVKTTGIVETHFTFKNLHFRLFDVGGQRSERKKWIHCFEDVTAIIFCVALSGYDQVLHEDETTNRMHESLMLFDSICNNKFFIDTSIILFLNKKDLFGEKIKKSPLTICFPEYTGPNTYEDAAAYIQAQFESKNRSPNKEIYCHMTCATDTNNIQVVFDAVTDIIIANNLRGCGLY
HSV augment = enhancers of HSV replication in host cells, fold increase, host cell viability; maximum fold increase; AID 1956, 2009; 220,000 tested, 0.005% active; HSV replication augmentation in cells;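 active = peak rise of 1.5-fold or more in the series; tested in PC3 cells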;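 note: first round at 10 µM; read as green reporter fluorescence; hits show the peak of a series up to 25 µM; 1 = signal of infected wells without compound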
PKD1 kinase inh = inhibitors of human PKD1 kinase, biochemical, fluorescence polarization. Serine/threonine-protein kinase D1 (Homo sapiens), Q15139. PKD1 kinase fluorescence polarization assay. inhibition, %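 (about 10 µM by stock and volumes)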. 200,000 tested, 0.056% active. AID 797, 2007;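 active = inhibition of 50% or more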;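 note: controls were vehicle for no effect and a reference inhibitor for full effect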
Insulin prom inh = inhibitors of insulin promoter-driven GFP, primary screen, imaging, TRM-6 cells (human fetal islet line), eGFP reporter, cell count; reporter expression induced with tamoxifen; inhibition, % at 2 µM; 130,000 tested, 0.9% active; AID 1273, 2008;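 active = inhibition above the mean plus 3 SD, with well images judged a real hit on visual review, cut at about 60% in these data, passing the limit was not always enough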
Insulin prom inh cell count = also measured in Insulin prom inh; calls as there; normalized cell count, %; measured here: cell count, toxicity; reference of the scale not given here;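 cells exposed to compound for 48 h; stained nuclei by imaging scaled within each plate; lower means fewer cells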
HSV augment primary fold = second read-out of HSV augment, no call of its own (marks repeat the call); fold increase; compound at 10 µM; measured here: primary screen fold increase 10 uM; tested in PC3 cells;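 GFP signal in the first replicate; 1 = infected wells without compound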
* = called active by the depositor; i = inactive; · = not tested or not shown; [ ] = dose if it differs, or a comment.

SMILES | GALR2 ag | RGS16-Gao HTS | HSV augment | HSV augment primary fold | PKD1 kinase inh | Insulin prom inh | Insulin prom inh cell count
CCn1c(=O)cc(SCC(=O)Nc2cccnc2)c2ccccc21 | -0.2 | 97 | i | 1 | 6 | -81 | 120
O=C(COc1ccc(/C=N/NC(=O)c2ccccc2O)cc1)Nc1ccc([N+](=O)[O-])cc1 | -0.2 | 99 | i | 0.98 | -6 | · | ·
CC(=O)c1cc(C#N)c(SCC(=O)OC(C)(C)C)nc1C | -0.9 | 109 | i | 0.84 | 2 | · | ·
Cc1ccc(-n2nc3cc(C)c(NC(=O)c4cccnc4)cc3n2)cc1 | -0.5 | 105 | i | 0.79 | -5 | · | ·
COc1ccc(Nc2nc(-c3ccccc3)c3ccccc3n2)cc1 | -1.2 | 102 | i | 1.1 | 4 | · | ·
O=C(Cc1ccccc1)NCCC1=CCCCC1 | -1.5 | 95 | i | 0.97 | 1 | -188 | 53
Cc1cc(NC(=O)CSc2nnnn2-c2ccc(C)c(C)c2)no1 | · | 97 | i | 0.85 | -2 | · | ·
CCOC(=O)C(C)(C)N(Cc1ccccc1C)S(=O)(=O)c1ccc(Cl)c([N+](=O)[O-])c1 | -0.6 | 114 | i | 0.74 | 3 | 7 | 104
O=C(c1cccc(OC(F)F)c1)N1CCN(c2ncccn2)CC1 | -0.7 | 89 | i | 0.93 | 3 | · | ·
CC(C)(C)c1ccc(C(CC(=O)O)NC(=O)CSc2ccccc2)cc1 (configuration not stated) | · | 100 | i | 0.95 | 2 | -5 | 112
COc1ccc(N2CCN(C(=O)Cn3cnc4c(cnn4-c4ccc(C)cc4)c3=O)CC2)cc1 | · | 106 | i | 1 | -10 | -42 | 78
Cc1csc(=Nc2ccc(S(=O)(=O)N3CCOCC3)cc2)n1Cc1ccco1 | -0.4 | 105 | i | 0.89 | -1 | · | ·
COc1cc(O)c(CCO)c2c1C(=O)C[C@@H](C)O2 | · | 106 | i | 0.85 | 11 | · | ·
C/C(=N\Nc1nc(N2CCCCC2)nc(N2CCOCC2)n1)c1cccs1 | · | 104 | i | 0.76 | 2 | 22 | 136
CN(C)CC#Cc1cncc(C(=O)NNC(=O)Nc2ccc(Cl)cc2)c1 | · | 106 | i | 0.82 | · | · | ·
CC(C)C(C(=O)Nc1cccnc1)N1C(=O)c2ccccc2C1=O (configuration not stated) | -2.0 | 98 | i | 1 | 3 | 10 | 70
C=CCSc1nnc(Cc2c(C)[nH]c3ccccc23)o1 | -1.1 | 87 | i | 0.98 | -6 | · | ·
CCc1cccc2c(C(=O)C(F)(F)F)cn(CC(=O)NCC3CCCO3)c12 (configuration not stated) | · | 100 | i | 0.88 | -5 | -5 | 115
COCCCNC(=O)C1CCCN(C(=O)Nc2ccc(OC)cc2)C1 (configuration not stated) | -2.2 | 98 | i | 0.98 | -3 | -21 | 68
COc1cc(C)nc(NS(=O)(=O)c2ccccc2)n1 | -5.0 | 104 | i | 0.9 | 4 | -6 | 106
NC(=O)CSc1nnc(CSc2ncccn2)n1-c1ccccc1 | · | 95 | i | 0.99 | 5 | · | ·
CC1CCC(NC(=O)CN(C)S(=O)(=O)c2cnc[nH]2)CC1 (configuration not stated) | · | 103 | i | 1 | -1 | -21 | 104
O=[N+]([O-])c1ccc(/C=N/NC(=S)Nc2ccccc2F)o1 | -0.7 | 84 | i | 1.3 | -5 | · | ·
CCOC(=O)c1c(NC(=O)C(Sc2ccccc2)c2ccccc2)sc(C(N)=O)c1C (configuration not stated) | 1.1 | 95 | i | 0.74 | -8 | -33 | 91

4 consecutive records from above:
SMILES | GALR2 ag | RGS16-Gao HTS | HSV augment | HSV augment primary fold | PKD1 kinase inh | Insulin prom inh | Insulin prom inh cell count
NC(=O)CSc1nnc(CSc2ncccn2)n1-c1ccccc1 | · | 95 | i | 0.99 | 5 | · | ·
CC1CCC(NC(=O)CN(C)S(=O)(=O)c2cnc[nH]2)CC1 (configuration not stated) | · | 103 | i | 1 | -1 | -21 | 104
O=[N+]([O-])c1ccc(/C=N/NC(=S)Nc2ccccc2F)o1 | -0.7 | 84 | i | 1.3 | -5 | · | ·
CCOC(=O)c1c(NC(=O)C(Sc2ccccc2)c2ccccc2)sc(C(N)=O)c1C (configuration not stated) | 1.1 | 95 | i | 0.74 | -8 | -33 | 91

Continued.
SMILES | GALR2 ag | RGS16-Gao HTS | HSV augment | HSV augment primary fold | PKD1 kinase inh | Insulin prom inh | Insulin prom inh cell count
N/C(=N\OCc1ccc([N+](=O)[O-])cc1)c1ccccn1 | · | 104 | i | 0.97 | -3 | · | ·
Cc1oc2cc(O)ccc2c(=O)c1-c1nncn1-c1ccccc1 | · | 100 | i | 0.96 | -4 | 6 | 122
C=C1CC(C)OC(c2ccccc2OCC(O)CN2CCCCC2)C1 (configuration not stated) | 0.7 | 101 | i | 0.88 | 2 | -27 | 56
CC(C)NC(=O)C1CCN(C2CCN(CC3CC=CCC3)CC2)CC1 (configuration not stated) | · | 166 | i | 1 | 1 | · | ·
CC(Sc1nncn1C)C(=O)Nc1ccccc1-c1ccccc1 (configuration not stated) | -3.6 | 103 | i | 0.95 | -10 | · | ·
CCOC(=O)c1cc(C(C)=O)n2ccccc12 | -1.8 | 96 | i | 0.83 | 11 | · | ·
COc1ccc(NS(=O)(=O)c2cccc(C(=O)NNC(=O)c3cc(C)oc3C)c2)cc1 | -1.3 | 109 | i | 0.87 | -11 | 2 | 93
COc1ccc(-n2c(SCC(=O)Nc3ccccc3)nnc2-c2ccoc2C)cc1 | 0.6 | 101 | i | 0.99 | 2 | -94 | 84
C=CCn1c(C)cc(C(=O)CSc2nc3ccccc3c(=O)[nH]2)c1C | 2.1 | 104 | i | 1 | 1 | -4 | 118
OCCN(CCO)c1ncnc2c1oc1ccc(Br)cc12 | -0.6 | 101 | i | 0.98 | -5 | -33 | 116
CC(C)OP(=O)(OC(C)C)C(NC(=O)c1cccc([N+](=O)[O-])c1)C(N)=O (configuration not stated) | -1.8 | 91 | i | 0.91 | -3 | 6 | 109
CCOC(=O)c1ccc(NC(=O)c2cc(S(=O)(=O)N3CCOCC3)ccc2O)cc1 | -0.7 | 100 | i | 0.97 | -3 | 48 | 48
Cc1cccc(NC(=O)C2COc3ccccc3O2)n1 (configuration not stated) | · | 99 | i | 1.1 | · | · | ·
Cc1c(NC(=O)c2ccc3c(c2)OCO3)cccc1-c1nc2ncccc2o1 | -3.5 | 102 | i | 0.85 | -9 | · | ·
O=c1nc2n(Cc3ccccc3)c3ccccc3cc-2c(=O)[nH]1 | -0.5 | 99 | i | 0.98 | -3 | 43 | 138
CCCN1Cc2cccc(C(=O)Nc3ccc(S(=O)(=O)N4CCCCCC4)cc3)c2C1=O | -1.9 | 93 | i | 0.94 | -14 | · | ·
NC(=O)NCC1CC1 | · | 96 | i | 0.89 | 0 | · | ·
O=C(Nc1ccccc1)c1cnc(-c2ccccc2)nc1-c1ccccc1 | 0.9 | 100 | i | 0.92 | -14 | · | ·
COc1ccc(CCN2C(=O)CC(NNC(=O)c3ccc(F)cc3)C2=O)cc1OC (configuration not stated) | 0.0 | 104 | i | 1 | -11 | -55 | 77
C/C(=N\Nc1ccc([N+](=O)[O-])cc1)c1cccc(N)c1 | -1.9 | 88 | i | 1 | 6 | · | ·
CC(=O)N1N=C(c2cccc([N+](=O)[O-])c2)OC1c1ccc(Cl)cc1Cl (configuration not stated) | -0.7 | 100 | i | 0.96 | -17 | · | ·
O=C(Nc1nc(-c2cc(F)ccc2F)cs1)c1ccccn1 | · | 100 | i | 0.98 | 6 | · | ·
Cc1ccc(-c2ccc(CCC(=O)O)n2CC(=O)O)cc1 | -1.8 | 80 | i | 0.91 | 4 | 4 | 97
CCCS(=O)(=O)N1CCCC(C(=O)NCCCN2CCN(c3ccccc3F)CC2)C1 (configuration not stated) | 0.2 | 100 | i | 1 | 4 | · | ·
CN(C)c1ccc(/C=N/NC(=O)CCCCCNC(=O)c2ccccc2)cc1 | · | 112 | i | 0.96 | · | · | ·
Cc1cc(NC(=O)COC(=O)c2ccc(S(=O)(=O)N3CCCC3)cc2)no1 | · | 98 | i | 0.92 | -2 | · | ·
Cc1cc(C(=O)c2ccccc2)c(NC(=O)CN2CCOCC2)s1 | -0.1 | 108 | i | 0.96 | -9 | -53 | 102
COc1ccc(CCN(C(=O)c2ccco2)C(C(=O)NC2CCCC2)c2ccncc2)cc1OC (configuration not stated) | · | 105 | i | 1.1 | 7 | 14 | 60
COc1ccccc1NC(=S)N1CCC(c2nc3cc(C)c(C)cc3[nH]2)CC1 | -1.4 | 101 | i | 0.99 | -6 | -23 | 91
COC(=O)C1CCN(C(c2cc(OC)c(OC)c(OC)c2)c2sc3nc(C)nn3c2O)CC1 (configuration not stated) | -1.5 | 105 | i | 0.99 | -9 | -100 | 68
COc1cc(NC(=S)NCc2ccco2)c(OC)cc1Cl | · | 103 | i | 0.97 | -4 | 10 | 83
COCCN(C)Cc1cn(-c2ccc(F)cc2F)nc1-c1ccccc1C | · | 100 | i | 1 | -5 | · | ·
CCn1c(SCC(=O)Nc2nc3ccccc3s2)nc2c(c1=O)SC(C)C2 (configuration not stated) | 0.8 | 89 | i | 1 | -1 | 18 | 103
Cc1nn(-c2ccc(F)cc2)c2sc(C(=O)OC3CCOC3=O)cc12 (configuration not stated) | -2.0 | · | i | 0.93 | -8 | · | ·
COC(=O)c1cc(C(=O)OC)cc(N2C(=O)CC(N3CCN(c4ccccc4)CC3)C2=O)c1 (configuration not stated) | -2.9 | 81 | i | 1.1 | -5 | -212 | 67
O=C(O)c1ccccc1C(=O)NCCc1c(C(=O)O)[nH]c2ccc(F)cc12 | · | 99 | i | 0.96 | · | · | ·
O=C(N/N=C/c1ccc(OC(=O)c2ccc3c(c2)OCO3)cc1)c1cncc(Br)c1 | 0.3 | 110 | i | 0.99 | 7 | -2 | 84
C/C(=N/NC(=O)c1ccc(Br)o1)C(C)C | -1.9 | 103 | i | 0.99 | -4 | -33 | 177
Cc1c2c(n3c(nc4ccccc43)c1C#N)N(Cc1cccnc1)CC2 | 1.5 | · | · | · | -5 | 33 | 141
C=CCOc1ccccc1CNCCc1ccc(S(N)(=O)=O)cc1 | · | 100 | i | 0.88 | -4 | 18 | 98
CC(=O)c1ccc(N(C(=O)Cc2c[nH]c3ccccc23)C(C(=O)NC2CCCCC2)c2cccs2)cc1 (configuration not stated) | -2.8 | 17 | i | 0.73 | 1 | -54 | 74
O=C(NCc1ccco1)C(c1ccccc1F)N(CC1CCCO1)C(=O)Cn1nnc2ccccc21 (configuration not stated) | -1.6 | 104 | i | 0.93 | 5 | · | ·
CCOc1ccc(OCCCCN(C)C)cc1 | -1.9 | 99 | i | 0.99 | 7 | -19 | 62
CC1(C)CNC(=O)c2sc(NC(=O)c3ccccc3Cl)nc2C1 | · | 107 | i | 0.96 | 7 | · | ·
O=C(C1CC(c2cccc(Br)c2)=NO1)N1CCc2ccccc2C1 (configuration not stated) | -1.3 | 102 | i | 0.86 | -4 | 37 | 69
CCOc1ccc(NS(=O)(=O)c2cc(NC(=O)c3ccc(C)cc3)ccc2Cl)cc1 | -1.9 | 101 | i | 0.71 | -4 | -73 | 19
O=C(CN(Cc1ccco1)C(=O)c1cc(=O)[nH]c2ccccc12)Nc1ccccc1C(F)(F)F | -1.0 | 103 | i | 1 | -4 | · | ·
Cc1ccc2c(c1)C(c1ccncc1)=NNC(c1cccnc1)=N2 | · | 114 | i | 1 | 5 | · | ·
N#C/C(=C\C=C\c1ccccc1)C(=O)NCc1ccco1 | · | 93 | i | 0.75 | 2 | · | ·
Cc1ccc(C(=O)c2cc([N+](=O)[O-])ccc2N2CCN(C)CC2)cc1 | 0.7 | 95 | i | 0.71 | 3 | -33 | 110
CC(=O)c1ccc(Oc2cc(-c3ccccc3)nc(-c3ccccc3)n2)cc1 | -2.3 | 111 | i | 1 | -10 | -38 | 114
COc1ccc(CNC(=O)c2n[nH]c3ccccc23)cc1OC | · | 99 | i | 1.1 | -2 | 27 | 80
Cc1[nH]cnc1CSCc1ccc(Cl)cc1 | -2.4 | 192*[activator] | i | 0.96 | 1 | -23 | 65

Structures listed so far that bear a hit mark in RGS16-Gao HTS.
SMILES	GALR2 ag	RGS16-Gao HTS	HSV augment primary fold	PKD1 kinase inh
Cc1[nH]cnc1CSCc1ccc(Cl)cc1	-2.4	192*[activator]	0.96	1
